NS1 inh: inhibitors of influenza NS1 protein function; S. cerevisiae slowed by influenza A NS1, growth recovery by OD600; Potency, µM (doses to about 46.1 µM), inactives show at the highest dose activity, positive = more growth; 0.4% of 270,000 active; note: actives are rising curves; nearly all actives have a fitted effect of over 50% in size
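OD600 was taken as the measure of yeast growth restored by compound in an NS1-expressing S. cerevisiae strain. Cells had been washed out of glucose medium and diluted 1:100 into galactose -URA medium, pH 6.0.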
MARV entry inh: Marburg virus entry inhibition; Marburg virus pseudotyped entry inhibition, cell reporter; control for the full effect not named in the record; about a third of the inactives were read at about 46 µM; Potency, µM (top dose mostly 37.8 µM), for inactives: top-dose activity change, negative = inhibition, usual class: inhibitors; 1.8% of 300,000 active; active = well fitted inhibition curve with a large enough effect; inconclusive = small, poorly fitted or top-dose-only effect, or effect the other way; inactive = flat fitted curve, though single readings scatter; tested in HEK293 cells; about a fifth of its hits are not listed in these tables; note: % is set by controls: 0 for no effect and ±100 for the full control effect; luciferase read-out
Lassa entry inh: Lassa virus entry inhibition; Lassa virus pseudotype entry inhibition, cell reporter; control for the full effect not named in the record; Potency, µM (titrated, usually from 37.9 µM), for the others: at the highest dose activity change, negative = inhibition, actives largely listed as inhibitors; 1.2% of 300,000 active; active means well fitted inhibition curve with a large enough effect; inconclusive means small, poorly fitted or top-dose-only effect, or effect the other way; inactive means flat fitted curve, though single readings scatter; tested in HEK293 cells; note: % is set by controls: 0 for no effect and ±100 for the full control effect; nearly all actives have a fitted effect of over 50% in size; luciferase read-out
StopGo reporter: FMDV 2A StopGo reporter, luciferase signal; human cells with a luciferase reporter of 2A StopGo recoding; control for the full effect not named in the record; Potency, µM (doses to about 57.9 µM), without a hit: at the top dose signal change, negative = less light; 1.2% of 410,000 active; AID 1159524; active = well fitted falling curve with a large enough effect; inconclusive = small, poorly fitted or top-dose-only effect; inactive = no such curve, though single readings can be large or run the other way; tested in HEK293T cells; note: % is set by controls: 0 for no effect and ±100 for the full control effect; nearly all actives have a fitted effect of over 45% in size; luciferase light after 4 h
SARS PLpro yeast: blocks SARS-CoV papain-like protease in a yeast assay. S. cerevisiae expressing SARS-CoV PLpro, growth rescue; control for the full effect not named in the record. Potency, µM (titrated, usually from 32.9 µM), without a hit: at the highest dose activity, positive = growth rescue. 0.19% of 330,000 active; note: 0% is about no effect; nearly all actives have a fitted effect of over 55% in size; growth read by luminescence after 48 h
Cruzain inh Det: inhibitors of Trypanosoma cruzi cruzain with detergent; purified cruzain, Z-FR-AMC fluorescence, 0.01% Triton; P25779; AID 1478; 0.43% of 200,000 active; Potency, µM, for the others: max response, negative = inhibition, usual class: inhibitors; active = well fitted curve in the direction sought with a large enough effect; inconclusive = small, poorly fitted or top-dose-only effect, or another doubt; inactive = no such curve, though single readings can be large; an effect the other way counts as inactive or inconclusive;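 note: plate controls were neutral wells for no effect and buffer without enzyme for full effect; nearly all actives have a fitted effect of over 40% in size; top concentration of the series not given in the record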
Target sequence (P25779 123-467 limits assumed): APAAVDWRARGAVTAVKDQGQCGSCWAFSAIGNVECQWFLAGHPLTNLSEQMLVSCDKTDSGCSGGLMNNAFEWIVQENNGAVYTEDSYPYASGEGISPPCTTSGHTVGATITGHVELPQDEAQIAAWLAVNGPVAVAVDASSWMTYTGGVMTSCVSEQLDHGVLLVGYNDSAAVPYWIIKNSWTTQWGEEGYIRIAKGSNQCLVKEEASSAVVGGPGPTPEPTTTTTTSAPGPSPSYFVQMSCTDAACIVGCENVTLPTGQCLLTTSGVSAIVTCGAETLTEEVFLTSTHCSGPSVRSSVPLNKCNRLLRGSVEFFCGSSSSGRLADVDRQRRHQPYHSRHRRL
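Detergent-containing arm of a paired screen for aggregation-based inhibition: 0.01% Triton X-100 present. Cruzain at 1.5 nM cleaved 2 uM Z-FR-AMC at pH 5.5 with 5 mM DTT; AMC fluorescence gain over 60 s measured activity.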
Cruzain inh noDet: blocks cruzain activity in detergent-free assay; P25779; 2.3% of 200,000 active; purified cruzain, Z-FR-AMC fluorescence, no detergent; Potency, µM, for inactives: max response, negative = inhibition, hits mostly inhibitors; active = well fitted curve in the direction sought with a large enough effect; inconclusive = small, poorly fitted or top-dose-only effect, or another doubt; inactive = no such curve, though single readings can be large; an effect the other way counts as inactive or inconclusive;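 note: plate controls were enzyme without inhibitor for no effect and buffer without enzyme for full effect; nearly all actives have a fitted effect of over 40% in size; top concentration of the series not given in the record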
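Purified cruzain at 1.5 nM, pre-incubated 15 min with compound at room temperature in 100 mM sodium acetate pH 5.5, 5 mM DTT, 0.00005% Triton X-100. Reaction started with 2 uM Z-FR-AMC; AMC fluorescence increase over 60 s gives rate.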
RE007 growth inh: less growth of the S. pombe RE007 Vpr strain. S. pombe RE007 Vpr strain, BacTiter-Glo ATP luminescence, 24 h; control for the full effect not named in the record. Potency, µM (doses to about 92.2 µM), for inactives: at the highest dose activity change, negative = less growth. 0.21% of 360,000 active. AID 651644; active = well fitted falling curve with a large enough effect; inconclusive = small, poorly fitted or top-dose-only effect; inactive = no such curve, though single readings can be large or run the other way;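 note: % is set by controls: 0 for no effect and ±100 for the full control effect; nearly all actives have a fitted effect of over 50% in size; the assay follows cell death caused by Vpr and the record does not say whether a fall means rescue or toxicity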
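Fission yeast RE007 carrying one integrated HIV-1 vpr copy, seeded at OD 0.01 in PMG+AL medium with 23 nL pinned compound. Grown 24 h at 30 degrees; viability read by BacTiter-Glo luminescence after 5 min.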
Starred values were filed as active, the others as inactive; ? = inconclusive; . = not tested or not shown; & = joins results of further samples; [ ] = dose if it differs, or a comment. Unless noted, calls come from the whole dose curve; as a rule, active means well fitted rising curve with a large enough effect; inconclusive means small, poorly fitted or top-dose-only effect; inactive means no such curve, though single readings can be large or run the other way. Potency is the fitted concentration of half-maximal effect.

SMILES	NS1 inh	MARV entry inh	Lassa entry inh	StopGo reporter	SARS PLpro yeast	Cruzain inh Det	Cruzain inh noDet	RE007 growth inh
O=C(NC1CCCCC1)C(c1cccnc1)N(C(=O)c1ccc(Cl)nc1)C1CCCCC1 (stereo not drawn)	.	-10%	-22%	1%	2%	.	.	-12%
CN(Cc1ccccc1)S(=O)(=O)c1ccc(OCC(=O)NCc2ccccn2)cc1	-6%	-14%[46.1 µM]	8%[46.1 µM]	-6%	1%	.	.	-6%
O=c1[nH]n2c(=O)c3c([nH]c2c1N=Nc1cccc(Cl)c1)CCC3	?	?	6%	1%	4%	-4.8%	-10%	-11%
O=C(CCN1C(=O)C2CC=C(Cl)CC2C1=O)Nc1ccccc1O (stereo not drawn)	?	10%	-1%	34%[activator]	-1%	1.7%	-1%	1%
Nc1ccc2nc(-c3cccc(-c4nc5ccc(N)cc5[nH]4)c3)[nH]c2c1	?	-12%[46.1 µM]	-9%	-18%	3%	.	.	5%
Cc1csc(SCC(=O)Nc2nncs2)n1	?	5%[46.1 µM]	7%[46.1 µM]	26%	2%	.	.	10%
Nc1nnc2cc(Cl)ccc2n1	.	?	-22%[46.1 µM]	-6%	.	.	.	-12%
Cc1cc(CSc2ccc(Cl)cc2)ccc1N	.	4%[46.1 µM]	1%[46.1 µM]	15%	.	.	.	18%
CCN(CC)S(=O)(=O)c1ccc2[nH]c(=O)cc(C(=O)Nc3ccccc3N3CCCC3)c2c1	-3%	8%	?	-1%	2%	.	.	0%
CN1C(=O)C(O)(c2sc(N)nc2-c2ccccc2)c2ccccc21 (stereo not drawn)	-6%	17%	2%	18%	1%	0.9%	-7%	-15%
CCOC(=O)C1CCN(c2cc(C)nc3c(-c4ccccc4OC)c(C)nn23)CC1	.	.	-5%[46.1 µM]	?	.	0.2%	-1%	.
Cc1ccc(N2C(=O)NC(NC(=O)C(C)(C)C)(C(F)(F)F)C2=O)cc1 (stereo not drawn)	11%	10%	?	15%	8%	1.0%	3%	1%
O=C(CSc1ccc(-c2cccc([N+](=O)[O-])c2)nn1)N1CCCCCC1	.	2%[46.1 µM]	11%	-20%	2%	.	.	-2%
COc1ccc(C2Nc3ccccc3C(=O)N2Cc2ccccc2)cc1Cn1nnc2ccccc21 (stereo not drawn)	7%	?	?	.	4%	-3.5%	?	-10%
COc1ccc(-c2nnc(SCc3ncc(-c4ccccc4)o3)o2)cc1	1%	25%[46.1 µM]	3%	-20%	0%	-6.3%	1%	17%
Cc1noc(C)c1COC(=O)C(c1ccccc1)c1ccccc1	.	9%[46.1 µM]	-19%	-12%	-6%	.	.	13%
Cn1c(C(=O)N2CCCC(C(=O)NCc3ccc4c(c3)OCO4)C2)cc2sccc21 (stereo not drawn)	-15%	0%	.	0%	9%	-4.0%	3%	-4%
CCC(C)N1C(=S)SC(C)(C)C1N(O)C(=O)NC1CCCCC1 (stereo not drawn)	-3%	-10%	-13%	0%	-1%	.	.	-14%
CCn1c(COC(=O)CNC(=O)c2ccccc2)nc2cc(S(=O)(=O)N(C)C)ccc21	.	-5%	16%[46.1 µM]	6%	4%	.	.	13%
O=S1OCCN1c1ccccc1 (stereo not drawn)	8%	.	.	28%	1%	.	.	1%
CCc1c(C)sc(NC(=O)c2cc(-c3ccc(OC)c(OC)c3)on2)c1C#N	-1%	-13%&8%[46.1 µM]	16%[46.1 µM]	0%&11%	-2%	-3.6%&-0.3%	-8%&15%	14%
CC1=NN(c2nc(-c3ccc(C)cc3)cs2)C(=O)C1N=Nc1cccc(O)c1 (stereo not drawn)	.	?	3%	-27%	13%	.	.	1%
CCc1ccc(CNC(=O)c2cnc3sc(N4CCCCC4)nn3c2=O)cc1	.	.	?	-9%	.	3.7%	5%	.
CC1CCN(CC(=O)Nc2nn(-c3ccccc3)nc2C(N)=O)CC1	.	19%[46.1 µM]	8%	0%	1%	.	.	-3%
O=C(COC(=O)c1cc(S(=O)(=O)N2CCOCC2)ccc1O)NCCc1ccccc1	2%	1%	12%	-8%	-4%	-2.9%	9%	22%
CN1CCN(c2ccccc2NC(=O)c2ccc(-c3ccccc3)cc2)CC1	-4%	?	?	-13%	1%	3.3%	-3%	23%
CCN1C(=O)CC(SC2CC(=O)N(CC)C2=O)C1=O (stereo not drawn)	.	17%	20%	-18%	.	.	.	4%
FC(F)(F)c1cc(-c2ccco2)nc(-n2nnc3ccccc32)n1	8%	-17%	?	10%	-2%	-8.1%	-25%	4%
CN(C)CCN(Cc1ccccc1)C(=O)[C@H](Cc1ccccc1)N1C(=O)c2ccccc2C1=O	-3%	-4%[46.1 µM]	3%[46.1 µM]	5%	1%	.	.	-7%
O=C(NCc1ccc(Cl)cc1)c1cnc2sc(N3CCCCCC3)nn2c1=O	.	.	1%[46.1 µM]	-3%	.	-2.3%	3%	.
CCCOc1ccccc1NS(=O)(=O)c1ccc2[nH]c(=O)[nH]c2c1	1%	-7%[46.1 µM]	?	-21%	7%	.	.	-10%
CCOc1ccc(Cl)cc1S(=O)(=O)N1CCC(C(=O)NCc2cccnc2)CC1	3%	?	9%[46.1 µM]	-2%	2%	.	.	-25%
Cc1cc(C)cc(NC(=O)CCC(=O)Nc2nnc(C(F)(F)F)s2)c1	4%	.	.	0%	1%	.	.	-12%
Cc1ccc(O)c(C(=O)c2cc(C(=O)NCCc3ccccc3)c(=O)n(CCc3ccccc3)c2)c1	20%	?	?	-28%	5%	-5.0%	25µM*	-2%
Cc1cc(Cl)ccc1NS(=O)(=O)c1c(C(=O)N2CCC(C)CC2)c(C)n(C)c1C	.	.	-17%[46.1 µM]	47%[activator]	.	-3.1%	?	.
Cc1ncc(CO)c(/C=N/NC(=O)c2ccccc2Br)c1O	-7%	?	-2%	1%	1%	-11%	-15%	3%
Cc1ccc(C(=O)Nc2ccc3c(c2)OCCO3)c(C)c1	-4%	1.3µM*	?	?	-5%	.	.	6%
OC[C@H](O)[C@H](O)[C@@H](O)[C@@H](O)[C@@H]1SC(c2ccccc2)=NN1c1ccccc1	7%	?	-15%[46.1 µM]	-16%	-1%	.	.	14%
CCSc1nc(=O)c2c(n1C)NC(=O)CC2c1ccc(O)cc1OC (stereo not drawn)	.	18%[46.1 µM]	22%[46.1 µM]	-1%	.	-5.3%	2%	.
C=CCNC(=O)/C(=C\c1ccco1)NC(=O)c1ccco1	4%	?	23%	7%	-2%	.	.	1%
CN(CC(=O)Nc1ccccc1Cl)CC(=O)N(C)c1c(N)n(Cc2ccccc2)c(=O)[nH]c1=O	.	12%	19%	-13%	11%	.	.	4%
CCOc1ccc(CN(CCC#N)C(=S)NC(=O)c2ccccc2)cc1	-28%	0%	.	-7%	0%	0.2%	-5%	-4%
Cc1ccc(Nc2cc(C)nc3nnnn23)cc1	11%	2%	-1%	-2%	12%	-1.0%	0%	-1%
CCC(C)[C@H](NC(=O)[C@H](Cc1ccccc1)n1c(=O)[nH]c2ccccc2c1=O)C(=O)N1CCC[C@@H]1C(=O)O (stereo partly drawn)	27%	.	.	-22%	-7%	.	.	10%
CCNS(=O)(=O)c1ccc2c(c1)n(C)c(=O)n2C	4%	28%	?	10%	1%	-0.7%	-5%	-12%
O=C(c1ccc(Cl)cc1)N(Cc1ccccc1F)N1C(=O)CCCC1=O	-5%	12%[46.1 µM]	12%[46.1 µM]	12%	-1%	.	.	0%
C/C(=N\NC(=O)c1ccc(N2CCCC2=O)cc1)c1ccc(O)cc1O	5%	.	.	0%	-2%	.	.	13%
O=C(Cn1c(=O)nc(-c2ccccc2)c2cc(Cl)ccc21)NCCc1ccccc1	.	.	?	0%	.	1.6%	-3%	.
Cc1ccc(OCC(=O)Nc2ccc(N3CCN(C(=O)c4ccc(C)cc4)CC3)cc2)cc1	4%	27%[46.1 µM]	1%[46.1 µM]	-7%	0%	.	.	1%
COc1ccc(OC)c(S(=O)(=O)N2CCCC(C(=O)NCCN3CCOCC3)C2)c1 (stereo not drawn)	-6%	-6%[46.1 µM]	-6%	-11%	1%	.	.	3%
CCn1nc(C)c(C2C(C#N)=C(N)OC3=C2C(=O)CC(C)(C)C3)c1C (stereo not drawn)	10%	?	0%	-7%	2%	-0.5%	2%	1%
CCc1nnc(NC(=O)CSc2nnc(-c3ccc(O)cc3)n2C)s1	-2%	4%[46.1 µM]	5%	-9%	0%	.	.	21%
CCOC(=O)N/N=C(/C)c1cccc(-n2cnnn2)c1	.	2%[46.1 µM]	4%	-4%	-1%	.	.	-4%
CC1CCc2onc(C(=O)N3CCN(c4cccc(Cl)c4)CC3)c2C1 (stereo not drawn)	.	.	?	-29%	.	-3.6%	8%	.
Cc1ccc(C)c(NC(=O)c2nn(C)c3c2CS(=O)(=O)c2ccccc2-3)c1	.	2%[46.1 µM]	2%[46.1 µM]	-13%	.	0.6%	2%	.
COC(=O)CC1c2cc(OC)c(OC)cc2CC(=O)c2cc(OC)c(OC)cc21 (stereo not drawn)	4%	?	9%	0%	13%	-4.6%	9%	5%
NC(=O)NCCN1CCN(c2ncc(C(F)(F)F)cc2Cl)CC1	.	?	20%[46.1 µM]	-5%	0%	.	.	38%
CN1C(=S)N(c2ccccc2)C(=O)/C1=C/c1cccs1	13%	?	1%	-12%	-13%	1.1%	9%	-4%
CN1CCN(C(=O)CCc2ncc(C(F)(F)F)cc2Cl)CC1	.	21%[46.1 µM]	?	-16%	5%	.	.	-7%
CC(=O)Nc1ccc(Oc2cc(NC(C)=O)cc([N+](=O)[O-])c2)cc1	.	-14%[46.1 µM]	-30%	-8%	3%	.	.	-1%
O=C(Cn1cnc2c(nnn2-c2cccc(Cl)c2)c1=O)N1CCCC1	0%	6%	21%	-6%	1%	3.6%	2%	3%
CC(c1cccs1)N(Cc1ccco1)C(=S)Nc1ccccc1Cl (stereo not drawn)	.	?	-4%[46.1 µM]	-7%	2%	.	.	0%
